PINK1 expr mod – PINK1 expression modulation; Potency, µM (top dose mostly 76.6 µM), inactives show top-dose activation (PINK1 increase), usual class: activators; PINK1 immunofluorescence, high-content cytometry, 24 h; 0.2% of 410,000 active; active = well fitted activation curve with a large enough effect; inconclusive = small, poorly fitted or top-dose-only effect; inactive = flat fitted curve, though single readings scatter; cell line not stated here;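 further: % of control where 0% means no effect; nearly all actives have a fitted effect of over 65% in size; a mitochondrial uncoupler was the plate control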
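A stable cell line was treated with compounds at 5 concentrations for 24 hours, with CCCP as control. PINK1 levels and mitochondrial localization were measured by immunofluorescence with mitochondrial, cell and nuclear markers after fixation, read by laser-scanning cytometry.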
Active calls of the source: *; u = inconclusive. Potency means the concentration at half of the fitted maximal effect. This is a subset; the hit share may differ from the screen's.

SMILES	PINK1 expr mod
COc1ccccc1N1CCN(c2nc(CNC(=O)C3CC34CCCC4)nc3ccccc23)CC1 (stereo unspecified)	0.0%
COc1ccc(C)cc1NC(=O)Cn1cc(S(=O)(=O)Cc2ccccc2Cl)c2ccccc21	0.5%
COc1ccc(-c2nc(SCC(=O)Nc3cccc(C(C)=O)c3)n[nH]2)cc1	-0.2%
COc1ccc(C(=O)Nc2ccc3c(c2)CCCN3S(=O)(=O)c2ccc(C)cc2)cc1	-0.1%
CCc1noc(C)c1C(=O)NCCN1Cc2cc(OC)ccc2OC(CC)C1 (stereo unspecified)	-0.2%
COc1ccc(OC)c(CN2CCC3(CCC(CNC(=O)c4ccco4)O3)CC2)c1 (stereo unspecified)	0.0%
O=C(CSc1nc2c([nH]c3ccccc32)c(=O)n1-c1cccc(C(F)(F)F)c1)N1CCCC1	-2.1%
Cc1ccc(CSc2cn(CC(=O)N3CCCC3)c3ccccc23)cc1	2.3%
O=C(CSc1nc2ccccc2n1Cc1cccc(C(F)(F)F)c1)NCc1ccccc1	u
CCOC(=O)c1c(C)oc2nc(C)nc(Nc3cccc(OC)c3)c12	0.4%
O=C(Nc1sc2c(c1C(=O)Nc1ccccc1)CCC2)c1ccc(Br)cc1	0.0%
CC(=O)Nc1ccccc1-c1nc2ccccc2n(Cc2cccc(Br)c2)c1=O	0.9%
CCC(C)NC(=O)c1ccc2c(c1)nc1n2CCCCC1 (stereo unspecified)	1.2%
CSc1ccc(NC(=O)Cn2nnnc2-c2ccccc2F)cc1	-0.6%
CC(C)COc1ccc(C(=O)Nc2cc(-c3ccccc3)no2)cc1	0.9%
OC(CBr)C[n+]1cccc2cc(Br)ccc21 (stereo unspecified)	-0.7%
Cc1ccc(-c2csc3ncnc(Sc4nnnn4-c4ccccc4)c23)cc1	-1.0%
CCOc1ccc(-c2cc(C)n3nc(C(=O)Nc4cc(Cl)ccc4O)cc3n2)cc1	3.4%
CCOC(=O)CSc1nc2c([nH]c3ccccc32)c(=O)n1-c1ccc(OCC)cc1	-3.7%
CS(=O)(=O)c1ccc(C(=O)OCC(=O)Nc2cc(C(F)(F)F)ccc2Cl)cc1[N+](=O)[O-]	0.6%
Cn1c(=NC(=O)c2ccc(S(=O)(=O)N3CCCC3)cc2)sc2cc(F)ccc21	12%
CC1CCN(S(=O)(=O)c2ccc(C(=O)Nc3sc4c(c3C(N)=O)CC(C)(C)NC4(C)C)cc2)CC1	-0.8%
CC(C)NC(=O)Cn1nc(N2CCN(c3ccccc3)CC2)ccc1=O	0.5%
CC(=O)N1CCc2c(sc(NC(=O)CSc3ccc(C)cc3)c2-c2nc3ccccc3s2)C1	1.6%
Cc1ccc(CNC(=O)C(C)n2nc(C)n3c(cc4sccc43)c2=O)cc1 (stereo unspecified)	2.1%
Cc1cc2oc(C(=O)Nc3ccc(S(=O)(=O)N4CCC(C)CC4)cc3)cc(=O)c2cc1C	-0.3%
COc1cccc(-c2nc(SC)nc3sc(C(=O)NC(C)(C)C)c(N)c23)c1	0.3%
CCNC(=O)c1cnc2c(-c3ccccc3)c(C)nn2c1C	-0.7%
CC(=O)c1cccc(NC(=O)C2CCN(c3ncnc4c3nc3n4CCCCC3)CC2)c1	-0.3%
CNC(=O)C1CCC(Cn2c(=O)c3sccc3n(CC(=O)Nc3cc(F)ccc3F)c2=O)CC1 (stereo unspecified)	-1.0%
CCCOc1ccc(Cn2c(=O)sc3ccccc32)cc1	-1.2%
CCCSCCCNC(=O)C1CCCN(C(=O)c2cnn(-c3ccccc3)c2-n2cccc2)C1 (stereo unspecified)	0.5%
CN(C(=O)CSc1nc2ccccc2[nH]1)c1ccc(F)cc1	-1.0%
Cc1ccc(C(=O)Nc2cccc(C(=O)OCc3cc(=O)n4c5c(sc4n3)CCCC5)c2)cc1	-0.6%
Cc1ccccc1NC(=O)CSC1=Nc2ccccc2C2=NC(Cc3ccccc3)C(=O)N12 (stereo unspecified)	0.2%
Cc1ccc(C)c(CN2C(=O)c3ccccc3S(=O)c3ccc(C(=O)NCc4ccccc4)cc32)c1 (stereo unspecified)	1.6%

Ordered by length of the SMILES (lowest first): part of the list above.
SMILES	PINK1 expr mod
CCCOc1ccc(Cn2c(=O)sc3ccccc32)cc1	-1.2%
CCNC(=O)c1cnc2c(-c3ccccc3)c(C)nn2c1C	-0.7%
CN(C(=O)CSc1nc2ccccc2[nH]1)c1ccc(F)cc1	-1.0%
CC(C)NC(=O)Cn1nc(N2CCN(c3ccccc3)CC2)ccc1=O	0.5%
Cc1ccc(CNC(=O)C(C)n2nc(C)n3c(cc4sccc43)c2=O)cc1 (stereo unspecified)	2.1%
COc1cccc(-c2nc(SC)nc3sc(C(=O)NC(C)(C)C)c(N)c23)c1	0.3%
CCOc1ccc(-c2cc(C)n3nc(C(=O)Nc4cc(Cl)ccc4O)cc3n2)cc1	3.4%
Cn1c(=NC(=O)c2ccc(S(=O)(=O)N3CCCC3)cc2)sc2cc(F)ccc21	12%
Cc1ccccc1NC(=O)CSC1=Nc2ccccc2C2=NC(Cc3ccccc3)C(=O)N12 (stereo unspecified)	0.2%
CCCSCCCNC(=O)C1CCCN(C(=O)c2cnn(-c3ccccc3)c2-n2cccc2)C1 (stereo unspecified)	0.5%
CC(=O)N1CCc2c(sc(NC(=O)CSc3ccc(C)cc3)c2-c2nc3ccccc3s2)C1	1.6%
CNC(=O)C1CCC(Cn2c(=O)c3sccc3n(CC(=O)Nc3cc(F)ccc3F)c2=O)CC1 (stereo unspecified)	-1.0%
Cc1ccc(C(=O)Nc2cccc(C(=O)OCc3cc(=O)n4c5c(sc4n3)CCCC5)c2)cc1	-0.6%
Cc1ccc(C)c(CN2C(=O)c3ccccc3S(=O)c3ccc(C(=O)NCc4ccccc4)cc32)c1 (stereo unspecified)	1.6%
CS(=O)(=O)c1ccc(C(=O)OCC(=O)Nc2cc(C(F)(F)F)ccc2Cl)cc1[N+](=O)[O-]	0.6%
CC1CCN(S(=O)(=O)c2ccc(C(=O)Nc3sc4c(c3C(N)=O)CC(C)(C)NC4(C)C)cc2)CC1	-0.8%

(list continues)
SMILES	PINK1 expr mod
O=C(c1cccc(Cl)c1)N1CCN(CCc2ccccn2)CC1	1.6%
Cc1ccc(-c2nnc(Nc3ccc(F)cc3)c3ccccc23)cc1S(=O)(=O)N1CCN(C)CC1	3.0%
CCn1c(=N)c(C(=O)NCC2CCCO2)cc2c(=O)n3cc(C)ccc3nc21 (stereo unspecified)	0.7%
Cc1nn(CCC(=O)Nc2cc(F)ccc2F)c(=O)c2nn(-c3ccccc3)c(C)c12	-0.4%
CC1=C(C(=O)OC2CCCC2)C(c2ccccc2C(F)(F)F)CC(=O)N1 (stereo unspecified)	5.6%
Cc1cc(C)cc(NC(=O)Cn2c(=O)n(Cc3ccc4c(c3)OCO4)c(=O)c3oc4ccccc4c32)c1	1.2%
CCS(=O)(=O)Nc1cc(C(=O)N2C[C@@H](C)O[C@@H](C)C2)c2c(c1)nc(-c1ccccc1)n2C	0.7%
Cc1ccc2c(=O)c(C(=O)c3ccc(F)cc3)cn(CC(=O)NC3CCCCC3)c2n1	-0.1%
COc1cccc(-c2ccc3c(N)c(C(=O)Nc4ccc(Cl)cc4F)sc3n2)c1	4.9%
N#Cc1cccc(NC(=O)C2CCN(c3cnccn3)CC2)c1	-0.3%
Cc1oc(-c2ccccc2NC(=O)C2CCCO2)nc1CNC(=O)c1cc(Cl)ccc1F (stereo unspecified)	0.7%
Cc1ccc(NS(=O)(=O)c2ccc3c(c2)CCCN3C(=O)C2CCC2)c(C)c1	1.1%
COc1ccc(OC)c(NC(=O)CSc2nccn2-c2cc(C)cc(C)c2)c1	0.6%
Cc1ccc(C)c(N2CCN(c3ccc(NC(=O)c4cccs4)cc3C(=O)O)CC2)c1	-1.0%
Cc1cc(O)c(C(c2ccccc2Cl)N2CCCCC2)c(=O)n1Cc1ccco1 (stereo unspecified)	-0.7%
Cn1nccc1C(=O)NCc1ccc2c(c1)CCN2C(=O)c1ccccc1	0.8%
O=C1c2ccccc2C(=O)N1c1ccc(S(=O)(=O)N2CCOCC2)cc1	-0.9%
Cc1ccc(C(=O)CSc2nc(-c3ccccc3)nc3c2CCCC3)cc1	-5.2%
O=C(Cn1c(=O)n(Cc2ccc(C(=O)NCc3ccc4c(c3)OCO4)cc2)c(=O)c2ccccc21)Nc1ccccc1F	-0.6%
COc1ccc(CNC(=O)C2CCN(S(=O)(=O)c3cccc4nonc34)CC2)cc1OC	1.4%
CC(=O)N1CCC(N(Cc2ccc(C)o2)C(=O)Nc2cccc(C(F)(F)F)c2)CC1	-0.7%
O=C(CSc1nnc(-c2ccncc2)n1-c1ccccc1)Nc1ccc(Br)cc1	1.9%
COC(=O)c1cccc(C(=O)NCc2nc(-c3ccccc3NC(C)=O)oc2C)c1	-0.4%
CCCCOc1ccc(C(=O)NCCc2csc(-c3cccc(F)c3)n2)cc1	28%
O=C(Cn1ccn(-c2cccc(Cl)c2)c(=O)c1=O)NCCc1ccccc1	-0.6%
CCc1nc2ccc(C(=O)NCc3cc(OC)ccc3OC)cc2nc1CC	1.1%
Oc1ccccc1-c1nc2ccc(Cl)cn2c1Nc1ccc2c(c1)OCCO2	-0.2%
O=C(Nc1ccc2oc(-c3ccccc3)nc2c1)c1ccc2ccccc2c1	3.8%
CCCCOC(=O)c1ccc(NC(=O)c2sc3nc(C)cc(C)c3c2N)cc1	1.1%
COc1ccc(N2C(=O)CS(=O)(=O)C23C(=O)N(Cc2c(F)cccc2Cl)c2ccccc23)cc1 (stereo unspecified)	-3.2%
Cc1ccc(N2CC(NC(=O)c3ccc(S(=O)(=O)N4CCOCC4)cc3)CC2=O)cc1C (stereo unspecified)	-0.1%
CCC(=O)N1c2ccc(S(=O)(=O)NCc3ccc(F)cc3)cc2CC1C (stereo unspecified)	-0.3%
Cc1ccccc1OCc1nc2ccccc2n1Cc1ccccc1Cl	u
C=CCOc1ccc(C2c3c(oc4ccc(C)cc4c3=O)C(=O)N2CCCN2CCOCC2)cc1 (stereo unspecified)	-1.2%
Cc1cccc(-c2nc(SCc3ccc(Br)cc3)n3[nH]c(=O)cc3n2)c1	-0.1%
CC(=O)Nc1ccc(-c2cc(C(=O)O)c3c(-c4ccccc4)[nH]nc3n2)cc1	3.3%
O=C(Cn1c(=O)c(C(F)(F)F)nc2ccccc21)Nc1cccc(Br)c1	4.2%
CCOc1ccc(-n2ccn3c(CC(C)CC(=O)O)nnc3c2=O)cc1 (stereo unspecified)	0.1%
COCC(=O)Nc1cc(C(=O)NC2CCCc3ccccc32)c2c(c1)nc(-c1ccncc1)n2C (stereo unspecified)	0.5%
CCCCCCCN(CCCCCCC)c1ccc(/C=C/c2ccnc3ccccc23)cc1	-0.2%
Cc1nn2c(=O)cc(CN(C)c3ccccc3)nc2s1	0.5%
COc1ccc(NC(=O)c2ccco2)cc1NC(=O)c1ccc(OC(C)C)cc1	-0.5%
CCOc1cc(CNc2ccc(O)cc2)cc(Br)c1OCc1ccccc1	9.5%
Cc1cn2c(=O)cc(COC(=O)c3ccc(NC(=O)c4ccc(C(C)(C)C)cc4)cc3)nc2s1	0.0%
COc1ccc(-c2nc3c4ccccc4n(CC(=O)N4CCN(c5ccccc5F)CC4)c(=O)n3n2)cc1	5.1%
COc1cccc(CNc2nccn(-c3cc(C)cc(C)c3)c2=O)c1	0.3%
Cc1ccc(C)c(NC(=O)C(=O)NCCc2csc(-c3ccc(C(F)(F)F)cc3)n2)c1	-0.6%
O=C(CCCn1c(=O)[nH]c2ccsc2c1=O)N1CCN(c2cccc(C(F)(F)F)c2)CC1	-0.1%
CCN1CCN(CCCNC(=O)c2ccc3c(c2)sc2nc(-c4ccc(C)cc4)cn23)CC1	5.1%
Cc1ccn2c(=O)cc(COc3ccc(NC(=O)c4ccccc4F)cc3)nc2c1	-0.1%
COc1ccc(S(=O)(=O)N(CC(=O)N2CCc3ccccc3C2)c2ccc(C)cc2)cc1	-0.9%
CCOC(=O)c1c(C)oc2nc(C)nc(N3CCN(c4ccc(C(C)=O)cc4)CC3)c12	-0.4%
Cc1ccc(C(=O)NCC(=O)OCc2cc(=O)n3ccsc3n2)cc1	-0.5%
COc1cc2ccccc2cc1C(=O)Nc1cccc(-c2nc3cc(C)c(C)cc3o2)c1	0.7%
Cc1ccccc1-c1cnc(-c2ccncc2)nc1C1CCCN(Cc2ccccc2O)C1 (stereo unspecified)	1.1%
CCOc1ccccc1CNC(=O)CCn1cccn1	-2.2%
COc1cc(OC)c(NC(=O)c2cc(S(=O)(=O)N3CCCC3)cn2C)cc1Cl	-1.0%
CCc1ccc(S(=O)(=O)N(C(C)=O)c2ccc3oc4c(c3c2)CCCC4)cc1	-1.0%
COc1ccccc1NC(=O)C1=C(C)Nc2nc(SCc3ccccc3Cl)nn2C1c1ccccn1 (stereo unspecified)	-0.4%
Cc1ccc(C)c(N2CCN(C(c3ccccc3)c3nnc(-c4ccccc4F)o3)CC2)c1 (stereo unspecified)	0.9%
(continued)
SMILES	PINK1 expr mod
O=C(NCc1ccc(F)cc1)C1CCN(C(=O)c2ccc(-n3ccc4ccccc43)s2)CC1	-1.0%
CSc1ccc(CCNC(=O)Cn2c(C)c3cnn(-c4ccccc4)c(=O)c3c2C)cc1	5.4%
CN1C(=O)C2(c3ccccc31)N(c1ccccc1)C(=O)CS2(=O)=O (stereo unspecified)	-4.3%
CCN(CC)c1nc2ccccc2nc1C(=O)Nc1ccc(C(C)=O)cc1	9.7%
O=c1cc(-c2ccccc2)n2c(SCc3ccc(Cl)cc3)nnc2[nH]1	14%
Cc1oc2ncn(CC(C)C)c(=O)c2c1C(=O)NCCCN(C)Cc1ccccc1	2.0%
COC(=O)c1ccccc1NC(=O)N(Cc1ccc(C)cc1)Cc1cccn1-c1nnc(N2CCCC2=O)s1	-1.1%
O=C(Nc1ccccc1Br)C(Cc1ccccc1)NS(=O)(=O)c1cccc2nsnc12 (stereo unspecified)	1.3%
CC(C)c1ccc(Nc2cc(C(=O)NCCc3ccccc3)c3ccccc3n2)cc1	5.9%
COc1cccc(-n2c(-c3ccco3)nc3c(cnn3-c3ccccc3C)c2=O)c1	0.5%
CCn1c(=O)cc(OCC(=O)N(C)c2cc(Cl)ccc2C)c2ccccc21	4.6%

Assay outcomes (PubChem)
